Assay outcomes (PubChem)
FPRL1 ligand – human FPRL1 ligands by binding competition, primary screen, cell-based, FPR counter-screen, flow cytometry | FPRL1-expressing cells, fluorescent ligand binding inhibition | inhibition, %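 (tested at 6.7 µM)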 | 24,000 tested, 0.3% active;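 further: 0% = buffer alone and 100% = receptor blocker peptide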
Target sequence (P25090 whole entry, looked up): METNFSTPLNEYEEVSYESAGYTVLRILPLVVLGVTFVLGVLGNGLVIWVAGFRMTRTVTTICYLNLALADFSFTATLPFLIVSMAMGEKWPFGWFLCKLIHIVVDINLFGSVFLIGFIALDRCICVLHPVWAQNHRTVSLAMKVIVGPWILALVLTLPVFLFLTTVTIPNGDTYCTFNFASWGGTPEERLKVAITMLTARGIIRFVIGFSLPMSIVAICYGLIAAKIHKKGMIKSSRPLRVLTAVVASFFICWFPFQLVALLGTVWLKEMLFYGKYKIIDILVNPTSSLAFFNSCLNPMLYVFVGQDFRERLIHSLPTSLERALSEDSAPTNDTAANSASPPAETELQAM
VCAM-1 imaging – inhibitors of TNFa-induced VCAM-1 surface display, imaging, high-content imaging, pooled HUVEC, TNFa stimulus (AID 456) | HUVEC TNFa-induced VCAM-1 surface expression, immunofluorescence imaging; numbers were filed only for top-ranked candidate wells | inhibition, % at 5 µM, or IC50 in µM where a hit was titrated | 10,000 tested, 0.2% active;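 active means top tenth filtered wells with inhibition above zero that passed visual or statistical confirmation; inactive means the rest, including hits rejected on review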;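 further: 0% = stimulated vehicle wells and 100% = unstimulated cells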
VCAM-1 down – inhibitors of TNFa-induced VCAM-1 surface display, cell-based, plate reader, pooled HUVEC, TNFa stimulus (AID 454). inhibition, % at 5 µM. HUVEC TNFa-induced VCAM-1 surface immunofluorescence, plate reader; numbers were filed only for top-ranked candidate wells. 10,000 tested, 0.2% active;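 active means compound among top-ranked inhibitors of TNF-induced VCAM-1 adhesion protein staining, with the hit upheld by image or statistical review; inactive means the rest, including hits rejected on review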;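 further: 0% = TNFa with vehicle and 100% = cells without TNFa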
FPR ligand – human FPR ligands by binding competition, primary screen, cell-based, FPRL1 counter-screen, flow cytometry. inhibition, %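 (tested at 6.7 µM)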. 24,000 tested, 0.74% active. FPR-expressing cells, fluorescent ligand binding. fMet-Leu-Phe receptor (Homo sapiens), P21462. AID 440, 2006;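 further: 0% = buffer wells and 100% = receptor blocker peptide wells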
Target sequence (P21462 whole entry, looked up): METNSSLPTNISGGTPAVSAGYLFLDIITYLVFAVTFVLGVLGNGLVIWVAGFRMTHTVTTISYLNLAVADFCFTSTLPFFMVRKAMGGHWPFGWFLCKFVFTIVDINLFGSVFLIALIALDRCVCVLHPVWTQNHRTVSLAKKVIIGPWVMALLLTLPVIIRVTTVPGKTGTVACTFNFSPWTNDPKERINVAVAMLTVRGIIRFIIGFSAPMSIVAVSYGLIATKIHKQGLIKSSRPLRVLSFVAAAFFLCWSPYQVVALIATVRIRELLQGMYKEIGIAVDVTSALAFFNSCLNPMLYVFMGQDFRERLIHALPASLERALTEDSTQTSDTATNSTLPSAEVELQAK
VCAM-1 augmentation – enhancers of VCAM-1 display on endothelial cells, imaging, high-content imaging, pooled HUVEC, TNFa stimulus (AID 457); Pooled HUVEC, TNFa-induced VCAM-1 immunofluorescence imaging; hits of this screen are not shown here; calls only; 10,000 tested, 0.2% active;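 active means a top-ranked rise in VCAM-1 staining upheld on image or statistical review; inactive means the rest, including candidates rejected on review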;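 further: compounds tested at 5 µM in the well; cells exposed to compound for 24 hours before fixing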
Active calls of the source: *; i = inactive; . = no result given.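 How the source made its calls, unless noted: active means mean above 30%; inconclusive means self-fluorescent; inactive means the rest.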 The list is partial; rates above refer to the full screens.

SMILES	FPRL1 ligand	VCAM-1 imaging	VCAM-1 down	FPR ligand	VCAM-1 augmentation
O=C(NC1=NCCS1)Nc1ccccc1	3	.	.	-5	.
Cn1c(=O)[nH]c(=O)c2c1nc(N(CCO)Cc1ccccc1)n2Cc1ccccc1Cl	11	i	i	15	i
Cn1c(Cn2c(=O)sc3ccccc32)nnc1SCc1cccc(F)c1	-3	.	.	2	.
Cn1cccc1C(=O)NC(=O)CSc1nnc(C2CC2)n1-c1ccccc1	1	i	i	2	i
Cc1ccc(CCNC(=O)C2CCN(S(=O)(=O)c3c(C)nn(C)c3C)CC2)cc1	3	i	i	6	i
CCOC(=O)c1sc2nc(CC(=O)OC)nc(NCCN3CCOCC3)c2c1C	1	.	.	11	.
O=C(OCC(=O)N1CCc2ccccc21)C1=COCCO1	-4	i	i	-2	i
CCn1c(SCC(=O)NCCc2ccc(Cl)cc2)nnc1-c1cccs1	11	i	i	0	i
CCOC(=O)N1CCC(N2C(=O)c3ccccc3C2Nc2ccc(Cl)cn2)CC1 (centres undefined)	2	.	.	8	.
CCOC(=O)C(C)n1cnc2c(oc3ccccc32)c1=O (centres undefined)	-1	.	.	-6	.
Cc1c(C(=O)O)oc2ccc(S(=O)(=O)NCc3ccc(F)cc3)cc12	3	.	.	-7	.
N#CC1=C(N)Oc2n[nH]c(-c3ccc(F)cc3)c2C1c1cccc(OC(=O)N2CCOCC2)c1 (centres undefined)	-5	.	.	-3	.
COc1ccccc1CNC(=O)c1ccc(CS(=O)(=O)c2ccccc2OC)o1	4	.	.	1	.
CCOc1ccc(C2/C(=C(\O)c3cccc(OC)c3)C(=O)C(=O)N2c2cc(C)on2)cc1OC (centres undefined)	0	.	.	2	.
COC(=O)c1[nH]c2ccc(C)cc2c1NC(=O)CN1CCCC(C)(C)C1	-6	i	i	-11	i
CCOC(=O)C1CCCN(C(=O)C2CCCN(S(C)(=O)=O)C2)C1 (centres undefined)	3	.	.	-5	.
O=C(CCNS(=O)(=O)c1cccc2nonc12)N1CCN(c2cccc(Cl)c2)CC1	6	.	.	0	.
O=C(CSc1nnc2sc3ccccc3n12)NCc1ccco1	-2	.	.	6	.
CCOc1ccc(-n2c(=O)cc(N3CCN(c4ccccc4)CC3)[nH]c2=O)cc1	1	i	i	-1	i
O=C(Oc1cc2oc(=O)c3c(c2cc1Cl)CCCC3)c1ccco1	-11	i	i	8	i
CCOC(=O)N1CCN(c2cc3[nH]c(=S)[nH]c3cc2F)CC1	-3	i	i	1	i
O=C(Cc1nn[nH]n1)NCc1ccccc1Cl	-2	.	.	3	.
CC1CCC(C(=O)NC(C(=O)N2CCN(c3ccccn3)CC2)C(C)C)CC1 (centres undefined)	3	.	.	6	.
CC(=O)c1ccc(-c2nc3ccccc3n2C)o1	-5	i	i	2	i
O=C(Nc1nc2ccccc2n1CCN1CCOCC1)c1cn(-c2ccccc2)nc1-c1ccccc1	-2	.	.	1	.
Nc1nc(C2C(=O)CCCC2=O)cs1	0	i	i	-5	i
O=c1c2[nH]c3ccc(Cl)cc3c2ncn1Cc1ccccn1	0	i	i	-6	i
CCCCC[C@H](O)/C=C/C1=C(CCCCCCC(=O)O)C(=O)CC1	4	i	i	7	i
COc1ccc(N(CC(=O)Nc2ccc(C)c(C)c2)S(=O)(=O)c2c(C)n[nH]c2C)cc1	-5	.	.	-3	.
COC(=O)c1cc2ccsc2n1CC(=O)Nc1ccc(N(C)C)cc1	-1	.	.	-8	.
Cc1ccc(-n2ncc3c(=O)[nH]cnc32)c(C)c1	-5	.	.	1	.
CCOC(=O)c1nnn(-c2nonc2NC(C)=O)c1C	2	i	i	2	i
O=C(c1ccco1)N1CCN(c2nc3ccsc3c(=O)s2)CC1	-4	.	.	1	.
Cc1csc(NC(=O)c2cnc3ccccn3c2=O)n1	-3	.	.	1	.
Cc1ccc(C)c(/C(O)=C2\C(=O)C(=O)N(CCCN3CCOCC3)C2c2cccnc2)c1 (centres undefined)	3	i	i	11	i
CCC(Sc1nccn1C)C(=O)Nc1nnc(C)s1 (centres undefined)	4	.	.	-1	.
COc1ccc(-c2nc(C#N)c(NCCCN(C)C)o2)cc1OC	2	i	i	1	i
CCOC(=O)C1=C(C)Nc2nnnn2C1c1c[nH]c2ccccc12 (centres undefined)	-5	i	i	3	i
C/C(=C1/SC(N2CCCC2)=NC1=O)c1ccc(Br)cc1	7	.	.	42*	.
CCC(C)NC(=O)CC(NS(=O)(=O)c1ccc(Cl)cc1)c1ccco1 (centres undefined)	2	.	.	-5	.

An excerpt from above in order of formula weight, low to high.
SMILES	FPRL1 ligand	VCAM-1 imaging	VCAM-1 down	FPR ligand	VCAM-1 augmentation
Nc1nc(C2C(=O)CCCC2=O)cs1	0	i	i	-5	i
Cc1ccc(-n2ncc3c(=O)[nH]cnc32)c(C)c1	-5	.	.	1	.
O=C(Cc1nn[nH]n1)NCc1ccccc1Cl	-2	.	.	3	.
CCOC(=O)c1nnn(-c2nonc2NC(C)=O)c1C	2	i	i	2	i
Cc1csc(NC(=O)c2cnc3ccccn3c2=O)n1	-3	.	.	1	.
CCC(Sc1nccn1C)C(=O)Nc1nnc(C)s1 (centres undefined)	4	.	.	-1	.
O=c1c2[nH]c3ccc(Cl)cc3c2ncn1Cc1ccccn1	0	i	i	-6	i
CCOC(=O)N1CCN(c2cc3[nH]c(=S)[nH]c3cc2F)CC1	-3	i	i	1	i
COc1ccc(-c2nc(C#N)c(NCCCN(C)C)o2)cc1OC	2	i	i	1	i
CCCCC[C@H](O)/C=C/C1=C(CCCCCCC(=O)O)C(=O)CC1	4	i	i	7	i
O=C(CSc1nnc2sc3ccccc3n12)NCc1ccco1	-2	.	.	6	.
O=C(Oc1cc2oc(=O)c3c(c2cc1Cl)CCCC3)c1ccco1	-11	i	i	8	i
O=C(c1ccco1)N1CCN(c2nc3ccsc3c(=O)s2)CC1	-4	.	.	1	.
C/C(=C1/SC(N2CCCC2)=NC1=O)c1ccc(Br)cc1	7	.	.	42*	.
COC(=O)c1cc2ccsc2n1CC(=O)Nc1ccc(N(C)C)cc1	-1	.	.	-8	.
CCC(C)NC(=O)CC(NS(=O)(=O)c1ccc(Cl)cc1)c1ccco1 (centres undefined)	2	.	.	-5	.
CC1CCC(C(=O)NC(C(=O)N2CCN(c3ccccn3)CC2)C(C)C)CC1 (centres undefined)	3	.	.	6	.
CCOc1ccc(-n2c(=O)cc(N3CCN(c4ccccc4)CC3)[nH]c2=O)cc1	1	i	i	-1	i
Cc1ccc(C)c(/C(O)=C2\C(=O)C(=O)N(CCCN3CCOCC3)C2c2cccnc2)c1 (centres undefined)	3	i	i	11	i
O=C(Nc1nc2ccccc2n1CCN1CCOCC1)c1cn(-c2ccccc2)nc1-c1ccccc1	-2	.	.	1	.

Next entries.
SMILES	FPRL1 ligand	VCAM-1 imaging	VCAM-1 down	FPR ligand	VCAM-1 augmentation
CCSc1nnc(Cn2c(=O)sc3ccccc32)n1-c1ccc(OC)cc1	9	.	.	12	.
Cc1ccc(S(=O)(=O)C2(C(=O)N3CCCC(C)C3)CC2)cc1 (centres undefined)	10	.	.	0	.
COC(=O)c1ccc(NC(=O)CCn2cccc2)cc1	6	.	.	-7	.
Cc1cc(C)nc(/N=C2\NC(=O)CC(C(=O)O)N2CCc2c[nH]c3ccccc23)n1 (centres undefined)	2	.	.	-2	.
CCCC1(C(=O)O)NC(c2ccccc2O)C2C(=O)N(Cc3ccccc3)C(=O)C21 (centres undefined)	1	.	.	5	.
CC1(C)S[C@@H]2[C@H](NC(=O)[C@H](C(=O)O)c3ccsc3)C(=O)N2[C@H]1C(=O)O	-14	i	i	6	i
Cc1cc(NC(=O)CSc2nc(C3CCCCC3)nc3ccccc23)no1	-8	i	i	12	i
CCCC1c2ccc(C)n2CCN1C(=O)Nc1ccccc1Cl (centres undefined)	-3	i	i	-6	i
COc1ccc(NC(=O)C2CCCN(S(=O)(=O)c3c(C)n[nH]c3C)C2)c(OC)c1 (centres undefined)	5	.	.	-2	.
COCCN(CCOC)C(=O)c1sc2nc(-c3ccccc3)cn2c1C	-6	i	i	-2	i
Cc1ccccc1CSc1nc2c(c(=O)[nH]1)CCC2	-4	.	.	4	.
CN1CCN(CCCNC(=O)c2ccc(CS(=O)(=O)c3ccc(Br)cc3)o2)CC1	8	.	.	2	.
CCOC(=O)CNc1nc(OCC#N)nc(N2CCOCC2)n1	-2	.	.	-2	.
CCCc1cc(=O)[nH]c(SCC)n1	-1	.	.	-1	.
COc1ccc(NC(=O)C2CCCCN2S(=O)(=O)c2ccc(F)cc2)cc1 (centres undefined)	1	i	i	-3	i
CCC(=O)NCCc1cc2cc(C)c(C)cc2[nH]c1=O	8	.	.	-3	.
CCN(C(=O)c1coc(=O)c2ccccc12)c1cc(OC)ccc1OC	-1	.	.	0	.
Cc1cccc(-c2noc(CCc3ccccc3)n2)c1	-2	.	.	-2	.
Cc1cc2ccccc2c(=O)n1CC(=O)Nc1ccc2c(c1)OCO2	1	i	i	2	i
N#CC1=C(N)N(c2ccc(Oc3ccccc3)cc2)C(=O)C1	0	i	i	-6	i
CCSCc1nnc(SCC(=O)Nc2cccc(SC)c2)n1C	-2	i	i	-4	i
COc1cc2[nH]c(=O)n(CCC(=O)N3CCN(c4cccc(C)c4C)CC3)c(=O)c2cc1OC	7	.	.	6	.
CCN(CC)CCN1C(=O)C(=O)/C(=C(/O)c2c(C)[nH]c(C(=O)OC)c2C)C1c1ccco1 (centres undefined)	-3	i	i	3	i
O=C(COC(=O)c1cc(-c2ccco2)nc2ccccc12)NCc1ccc2c(c1)OCO2	10	i	i	1	i
Oc1cccc(Nc2nc(NCC3CCCO3)c3ccccc3n2)c1 (centres undefined)	2	i	i	-2	i
Cc1cccc(-n2ccnc2SCC(=O)Nc2ccc3c(c2)OCCO3)c1	-4	.	.	0	.
Cc1cc(C)n(-c2nnc(C)n2/N=C/c2ccccc2F)n1	4	i	i	0	i
C=CCOc1cccc(C2/C(=C(/O)c3ccc(C)cc3)C(=O)C(=O)N2CCN2CCOCC2)c1 (centres undefined)	-3	.	.	-44	.
CCC(=O)N1CCc2cc(S(=O)(=O)NCCN3CCCCC3CC)ccc21 (centres undefined)	3	.	.	-1	.
O=C1C(=O)N(CCCn2ccnc2)C(c2cccnc2)/C1=C(/O)c1ccc(Cl)cc1 (centres undefined)	5	.	.	-3	.
Nc1ccc(S(=O)(=O)Nc2ncccn2)cc1	-2	i	i	-5	i
CCn1c(N)c(C(=O)N2CCOCC2)sc1=S	2	.	.	-2	.
COc1ccc(N2CCN(C(c3ccccc3)c3sc4nc(C)nn4c3O)CC2)cc1 (centres undefined)	3	i	i	-1	i
CCCCC(CC)CNS(=O)(=O)c1ccc2c(c1)CCN2C(=O)CCC(=O)O (centres undefined)	-1	.	.	6	.
CCOC(=O)c1[nH]c2c(c1C)C(=O)CC(c1ccc(OC)c(OC)c1)C2 (centres undefined)	-7	.	.	2	.
CC(=O)OCCNc1cc(N2CCN(C)CC2)c2noc3c2c1C(=O)c1ccccc1-3	53*	76%	i	6	i
CCOC(=O)C1=C(O)C(Nc2nccs2)(C(F)(F)F)N=C1C (centres undefined)	4	.	.	-5	.
Cc1cc(=O)n2nc(N3CCCC3C(=O)NCCCN3CC(C)CC(C)C3)sc2n1 (centres undefined)	7	.	.	-2	.
Cc1cnc(C(=O)OCC(=O)Nc2ccc(Oc3ccccc3)cc2)cn1	5	i	i	-8	i
COCC(=O)N(Cc1ccccc1)c1ccccn1	2	i	i	-1	i
O=C(NCc1ccco1)c1ccc2c(c1)N(Cc1ccccc1)C(=O)CS2=O (centres undefined)	8	.	.	-4	.
CCOC(=O)C1(C(=O)OCC)C(c2ccccc2)CC(O)N1C(C)=O (centres undefined)	-5	i	i	0	i
CC(=O)c1ccc(NC2c3ncccc3C(=O)N2Cc2ccc(F)cc2)cc1 (centres undefined)	12	.	.	0	.
COc1cc(N2CCOCC2)ncn1	-6	.	.	-2	.
Cc1ccccc1C1CC(=O)NC2=C1C(=O)CCC2 (centres undefined)	1	.	.	4	.
CCOc1ccc(N2CC(C(=O)NCc3cccc(C)c3)CC2=O)cc1 (centres undefined)	1	.	.	0	.
Cn1cccc1Cc1nnc(SCC(=O)NCc2ccco2)n1CCc1ccccc1	1	.	.	6	.
